# Source: PubChem (Johns Hopkins Ion Channel Center)
# KCNQ2 inh – KCNQ2 potassium channel inhibitors, primary screen, cell-based, CHO-K1, FluxOR thallium flux, B-score (AID 2156). Potassium voltage-gated channel subfamily KQT member 2 (Rattus norvegicus), O88943. 20 min; hits give low values; only compounds with negative scores are shown here; some inactives read as strong as hits. B-score at 10 µM. actives 1.1% (n = 310,000);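 active = fluorescence ratio B-score at most minus 3 library SDs, with starting brightness B-score within 2 library SDs, cut at about -5.5 in these data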
# Target sequence (O88943 whole entry, looked up): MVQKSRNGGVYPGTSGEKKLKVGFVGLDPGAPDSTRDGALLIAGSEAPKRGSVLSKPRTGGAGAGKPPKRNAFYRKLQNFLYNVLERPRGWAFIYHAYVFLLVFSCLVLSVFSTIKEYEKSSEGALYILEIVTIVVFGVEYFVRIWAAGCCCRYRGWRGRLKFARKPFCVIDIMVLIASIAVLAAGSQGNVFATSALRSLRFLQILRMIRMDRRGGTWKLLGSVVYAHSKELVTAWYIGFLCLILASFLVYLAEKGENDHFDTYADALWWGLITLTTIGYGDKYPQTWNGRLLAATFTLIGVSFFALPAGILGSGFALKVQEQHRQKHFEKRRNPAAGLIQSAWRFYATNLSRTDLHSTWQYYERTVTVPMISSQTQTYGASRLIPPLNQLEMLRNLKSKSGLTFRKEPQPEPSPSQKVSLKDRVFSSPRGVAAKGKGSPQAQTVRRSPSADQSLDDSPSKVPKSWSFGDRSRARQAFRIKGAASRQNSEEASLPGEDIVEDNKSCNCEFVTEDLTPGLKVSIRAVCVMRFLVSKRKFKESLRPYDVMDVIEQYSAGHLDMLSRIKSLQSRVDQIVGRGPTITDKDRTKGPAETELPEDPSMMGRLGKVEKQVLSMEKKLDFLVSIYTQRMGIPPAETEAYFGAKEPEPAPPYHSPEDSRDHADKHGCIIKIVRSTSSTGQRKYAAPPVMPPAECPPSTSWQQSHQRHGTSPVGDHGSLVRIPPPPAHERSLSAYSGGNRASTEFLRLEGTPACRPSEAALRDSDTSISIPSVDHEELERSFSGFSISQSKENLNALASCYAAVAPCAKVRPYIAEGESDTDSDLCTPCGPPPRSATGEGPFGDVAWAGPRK
# KCNQ2 inh baseline – second read-out of KCNQ2 inh, no call of its own (marks repeat the call); B-score; measured here: initial fluorescence intensity artifact check;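 brightness before thallium and not channel activity; 0 = typical well and far values either way flag optical interference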
# Numbers without * were called inactive; i = inactive. The list is partial. The share of hits here may be higher or lower than overall.
# Below each SMILES – KCNQ2 inh	KCNQ2 inh baseline
- COc1ccccc1NC(C)C(=O)N/N=C/c1cccs1 (stereo not given)
→ i	-1.9
- CCCCn1c(SCC(=O)NCC2CCCO2)nc2ccc(N3CCOCC3)cc2c1=O (stereo not given)
→ i	1.2
- CCCN(CCC)CCN1C(=O)C2C(C(=O)Nc3cccc(SC)c3)C3C=CC2(O3)C1C(=O)NC1CCCCC1 (stereo not given)
→ i	1.2
- CC1CC(CCC(=O)NC(=S)Nc2ccc(Cl)cn2)C(=O)O1 (stereo not given)
→ i	1.2
- O=S(=O)(Nc1cc(C(F)(F)F)ccc1N1CCOCC1)c1ccc2ccccc2c1
→ i	0.61
- COc1cccc(/C=N/NC(=O)c2nnn(-c3nonc3N)c2-c2cccs2)c1
→ i	2.1
- COc1ccc(N(CC(=O)NCCSC(C)(C)C)S(C)(=O)=O)c(OC)c1
→ i	0.71
- O=C(CCN1CCCCC1)c1ccc2c(c1)OCO2
→ i	0.76
- C(=C\c1nccc2c1[nH]c1ccccc12)/c1ccccc1
→ i	-1.6
- Cc1ccc(S(=O)(=O)N2CCN(C(=O)c3ccccc3OCc3c(C)noc3C)CC2)cc1C
→ i	0.63
- CCOc1ccc(C2/C(=C(\O)c3cccc(OC)c3)C(=O)C(=O)N2c2ccccn2)cc1OC (stereo not given)
→ i	0.11
- NC(=O)c1ccc[n+](CC(=O)c2ccc(Cl)c(Cl)c2)c1
→ i	-1.2
- O=S(=O)(Cc1ccc(Cl)cc1)c1ccccc1-c1nnc(-c2ccc(Cl)cc2)o1
→ i	0.13
- COc1ccc(N2C(=O)CC(N3CCN(S(=O)(=O)c4cc(C)ccc4C)CC3)C2=O)cc1 (stereo not given)
→ i	0.76
- CCC(C)[C@H](NC(=O)[C@@H]1Cc2ccccc2CN1)C(=O)NCc1ccc(OC)cc1 (stereo not given in full)
→ i	-2
- CCOc1ccc(/C=C(\C)C(=O)c2c(C)cc(C)[nH]c2=O)cc1
→ i	-0.02
- O=S(CCc1ccncc1)Cc1ccccc1 (stereo not given)
→ i	0.95
- COc1cccc(NC(=O)CN(C)C(C)C(=O)Nc2cc([N+](=O)[O-])ccc2Cl)c1 (stereo not given)
→ i	0.66
- O=C(COC(=O)c1ccccn1)Nc1ccc(S(=O)(=O)N2CCOCC2)cc1
→ i	2.4
- C=CC(COCc1ccccc1)N(Cc1ccc(OC)cc1)S(=O)(=O)c1ccccc1Br (stereo not given)
→ i	-0.17

# Continued, starting with the last 6 of the part before.
# Below each SMILES – KCNQ2 inh	KCNQ2 inh baseline
- CCC(C)[C@H](NC(=O)[C@@H]1Cc2ccccc2CN1)C(=O)NCc1ccc(OC)cc1 (stereo not given in full)
→ i	-2
- CCOc1ccc(/C=C(\C)C(=O)c2c(C)cc(C)[nH]c2=O)cc1
→ i	-0.02
- O=S(CCc1ccncc1)Cc1ccccc1 (stereo not given)
→ i	0.95
- COc1cccc(NC(=O)CN(C)C(C)C(=O)Nc2cc([N+](=O)[O-])ccc2Cl)c1 (stereo not given)
→ i	0.66
- O=C(COC(=O)c1ccccn1)Nc1ccc(S(=O)(=O)N2CCOCC2)cc1
→ i	2.4
- C=CC(COCc1ccccc1)N(Cc1ccc(OC)cc1)S(=O)(=O)c1ccccc1Br (stereo not given)
→ i	-0.17
- COc1ccc(C2SCC(=O)N2CC23CC4CC(CC(C4)C2)C3)cc1 (stereo not given)
→ -6.9*	0.27*
- O=C(CNS(=O)(=O)c1cccs1)N1CCc2ccccc2C1
→ i	0.07
- Cc1ccccc1NC(=O)Cc1nc(CCl)cs1
→ i	0.43
- COc1cc(/C=N/n2c(C)nc3ccccc3c2=O)cc(OC)c1O
→ i	1.3
- Cc1ccccc1CN(c1ccc(C(=O)NCCC2=CCCCC2)cc1)S(C)(=O)=O
→ i	-0.68
- O=C(NCCO)c1cccc2c1C(=O)c1ccccc1-2
→ i	0.22
- Cc1cc(=O)c2ccc(Cl)cc2[nH]1
→ i	-0.13
- CCOc1ccc(N2CC(C(=O)Nc3nnc(SCCOC)s3)CC2=O)cc1 (stereo not given)
→ i	0.03
- COc1ccccc1N1CCN(C2CCCCC2NS(=O)(=O)c2ccc(Cl)cc2)CC1 (stereo not given)
→ i	-0.68
- CC(C)(C)OC(=O)NCC(=O)N1CCC(C(=O)O)CC1
→ i	0.66
- O=C(CSc1nc2ccccc2s1)Nc1cc(C(=O)O)cc(C(=O)O)c1
→ i	0.33
- CCOC(=O)Nc1ccc(C(=O)c2ccncc2)cc1
→ i	0.55
- Cc1ccc(-c2nnn(Cc3nc4ccccc4s3)n2)cc1
→ i	1.1
- Cc1onc(-c2ccccc2Cl)c1C(=O)NCc1ccc(N2CCCC2=O)cc1
→ i	-2
- CCn1ccnc1CNCc1ccc(OCC(O)CN(C)Cc2ccccc2)cc1 (stereo not given)
→ i	-0.04
- COc1ccc(N=C2S/C(=C\c3ccco3)C(=O)N2CC(C)C)cc1
→ i	-0.65
- c1csc(-c2cc(N3CCCCC3)c3ccccc3n2)c1
→ i	-0.29
- O=C(COc1ccc2c3c(c(=O)oc2c1)CCCC3)NCCCN1CCCC1=O
→ i	0.06
- CCCCN(C)C(=O)c1oc2ccc(S(=O)(=O)N3CCCCCC3)cc2c1C
→ -5.6*	1.3*
- NCCNc1ccc([N+](=O)[O-])c(Sc2nc3ccccc3[nH]2)c1
→ i	-0.29
- COc1ccc(CC(=O)NNC(=O)CCc2ccccc2)cc1
→ i	1.2
- COc1cc(C(=O)NC(C)Cc2ccccn2)ccc1OC1CCN(C(C)=O)CC1 (stereo not given)
→ i	0.99
- CNC(=O)c1nc(C)n(-c2cc(Cl)ccc2Cl)n1
→ i	0.71
- Cc1cc(C)c(S(=O)(=O)NCc2cn3ccccc3n2)c(C)c1
→ i	1.8
- Cc1ccc(NC(=O)CCC(=O)NNC(=O)/C=C/C(=O)O)c(C)c1
→ i	0.03
- Cn1ncc2c1ncn1nc(COc3ccc4ccccc4c3)nc21
→ i	1.8
- CCOC(=O)C1CCN(CC(C)(C)NS(=O)(=O)c2ccc(C)cc2)CC1
→ i	2.1
- CCCC(NC(=O)c1c(C)noc1C)C12CC3CC(CC(C3)C1)C2 (stereo not given)
→ i	-1.6
- CN(CC(=O)Nc1ccc(Cl)c(Cl)c1)C(=O)CN1C(=O)NC2(CCCC2)C1=O
→ i	1.6
- O=C(NCc1ccc(CNC(=O)c2ccco2)cc1)c1ccco1
→ i	1.8

# 4 entries already listed, arranged by formula weight, smallest number first:
# Below each SMILES – KCNQ2 inh	KCNQ2 inh baseline
- Cc1ccc(-c2nnn(Cc3nc4ccccc4s3)n2)cc1
→ i	1.1
- Cc1ccc(NC(=O)CCC(=O)NNC(=O)/C=C/C(=O)O)c(C)c1
→ i	0.03
- Cc1onc(-c2ccccc2Cl)c1C(=O)NCc1ccc(N2CCCC2=O)cc1
→ i	-2
- CCCCn1c(SCC(=O)NCC2CCCO2)nc2ccc(N3CCOCC3)cc2c1=O (stereo not given)
→ i	1.2

# Later entries.
Molecule	KCNQ2 inh	KCNQ2 inh baseline
C=CCOc1cccc(C(=O)N(C)C2CCCN(Cc3ccccc3F)C2)c1 (stereo not given)	i	-1.2
O=C(NC(=S)N1CCN(c2ccc(Cl)cc2[N+](=O)[O-])CC1)c1ccco1	i	0.93
Cc1c(C(=O)C(=O)NCCCn2ccnc2)c2ccccc2n1C	i	1.5
O=[N+]([O-])c1ccc2c(c1)C(N1CCOCC1)/C(=C/COc1ccc(F)cc1)O2 (stereo not given)	i	0.83
Cc1ccc(C(=O)c2c3ccc([N+](=O)[O-])cc3[n+]([O-])n2CCCN)cc1	i	1.1
O=C(Nc1nccs1)[C@@H]1CCCN1C(=O)c1cccs1	i	-1.9
CCc1ccccc1NC(=O)CSc1nc2n[nH]c(C)c2c(=N)n1-c1cccc(OC)c1	i	1.9
CN(C)S(=O)(=O)c1ccc(C(=O)NCC(C)(C)N2CCOCC2)cc1	i	-1.4
O=C(CCc1ccccc1)Nc1nncs1	i	-0.2
CC1(C)Cc2ccccc2C(N/N=C/c2cccc(F)c2)=N1	i	-1.1
CCCn1c(=O)c(C(=O)NNS(=O)(=O)c2ccc(C)cc2)c(O)c2ccccc21	i	0.01
O=C(NCc1ccc(F)cc1)c1c2c(nc3ccccc13)CCN(Cc1ccccc1)C2	i	0.08
S=C(CN1CCCC1=S)N1CCOCC1	i	-2.5
COc1ccc(C(=O)CSc2nnc(C(CO)NC(=O)c3ccc(OC)cc3)n2C)cc1 (stereo not given)	i	-0.28
Cc1ccc(NC2CCCN(C(=O)c3ccc4nccnc4c3)C2)cc1C (stereo not given)	i	0.77
CCc1ccc(NC(=O)C2CCCN(S(=O)(=O)c3cccnc3)C2)cc1 (stereo not given)	i	1.1
COc1ccc(S(=O)(=O)NCc2ccc(C(=O)N3CCN(Cc4ccccc4)CC3)cc2)cc1	i	1.8
O=C(CSc1ccccc1)N1CCN(c2ccc(F)cc2)CC1	i	-1.3
CCCN(CC1CC1)C(=O)CSc1nnc(-c2cc(-c3cccs3)nc3ccccc23)o1	i	1.1
CCOc1cc(NC(=S)NCCc2ccccc2)c(OCC)cc1NC(C)=O	i	0.63
COc1ccc(CCNC(=O)COC(=O)Cn2cnc3ccccc32)cc1OC	i	0.75
O=C(Cn1cnnn1)NC1CCCN(Cc2ccccc2F)C1 (stereo not given)	i	-0.99
CCC(C)[C@H](NC(=O)N1c2ccccc2NC(=O)[C@@H]1C(C)C)C(=O)N[C@@H](Cc1ccccc1)C(=O)O (stereo not given in full)	i	-1.2
S=C(c1ccc(-c2ccc(Cl)cc2Cl)o1)N1CCCC1	i	-1.4
Cc1cc(Cl)ccc1OCCCC(=O)NCc1ccccn1	i	1.2
COc1cccc2cc(C(=O)Nc3cc(Cl)ccc3N3CCOCC3)c(=O)oc12	i	-1.5
Cc1nn(-c2ccccc2)c(N2CCCC2)c1/C=N/NC(=S)Nc1ccccc1C(F)(F)F	i	-1.8
O=C(c1ccccc1-n1cccn1)N1CCc2c([nH]c3ccccc23)C1c1ccccn1 (stereo not given)	i	0.07
O=C(Nc1ccc2c(c1)OCCO2)c1cc2sccc2n1Cc1ccc(F)cc1	-6.1*	-1.6*
O=C(CSc1nnc(NC(=O)c2ccc(S(=O)(=O)N3CCOCC3)cc2)s1)Nc1ccccc1C(F)(F)F	i	1.6
CCn1c(COc2ccccc2C)nc2ccccc21	i	2.2
COc1ccccc1C(=O)Nc1ccnn1C1CCN(Cc2ccn[nH]2)CC1	i	-0.63
O=C(Nn1c(-c2ccc(Br)cc2)nc2ccccc2c1=O)c1ccncc1	i	-1.5
Cc1nn(-c2ccc([N+](=O)[O-])cc2)c2c1C(c1ccc(OC(F)F)cc1)N1C(=N2)C(=O)Nc2ccccc21 (stereo not given)	i	-1.6
CC(=O)Nc1ccc(NC(=O)CSc2nnc(COc3ccccc3C)n2CC2CCCO2)cc1 (stereo not given)	i	1.6
O=[N+]([O-])c1nn(-c2ccc(Cl)cc2)n(O)c1=NCc1ccccc1	i	-2.2
Cn1ncc([N+](=O)[O-])c1C(=O)Nc1ccc(-c2nc3ccccc3[nH]2)cc1	i	0.41
COc1ccc(-c2nn(C)c(=O)c3ccccc23)cc1NC(=O)Cn1nc(-c2ccccc2)c2ccccc2c1=O	i	-0.03
COc1cccc(CNC(=S)NC2CC2)c1	i	0.06
N#Cc1ccc(CSc2nnc(NC(=O)C3CC(=O)N(c4ccc5c(c4)OCCO5)C3)s2)cc1 (stereo not given)	i	0.7
CCc1ccc(NC(=O)C2=CC(c3ccc(OC)c(OC)c3)=NS(=O)(=O)N2C)cc1	i	0.27
COc1cc(C(=O)NCC(c2cccnc2)N2CCN(c3ccccc3)CC2)cc(OC)c1OC (stereo not given)	i	0.92
O=C(NCCNc1ccc([N+](=O)[O-])cc1)c1cc(F)c(F)cc1Cl	i	-1.1
O=c1[nH]c(/C(=N\O)c2ccccc2)no1	i	5
Nc1ccc(CCc2ccc(N)cc2)cc1	i	2
O=C(COc1ccc(S(=O)(=O)NC2CCCCC2)cc1)NC1CC1	i	1.1
CCN1C(=O)[C@@H]2[C@@H](c3ccc(-c4cccc(Cl)c4)cc3)N3CCC[C@@]3(C(=O)OC)[C@@H]2C1=O	i	-0.85
Cc1nc(-c2ccccc2)nc2sc(C(=O)c3ccc(F)cc3)c(N)c12	i	-0.58
O=C(COC(=O)c1ccc(Cl)nc1)Nc1cccnc1Cl	i	-0.8
CC(C)NC(=S)N1CCN(C(c2ccccc2)c2ccccc2)CC1	i	0.19
COc1ccc(CNC(=O)COc2ccc(Br)c(C)c2)cc1	i	-0.07
O=C(N/C(=C/C=C\c1ccccc1)C(=O)N1CCOCC1)c1ccc(Br)cc1	i	-1.1
O=C(c1nn2c(C(F)(F)F)cc(-c3ccccc3)nc2c1Cl)N1CCN2CCCC2C1 (stereo not given)	i	0.67
CSc1n[nH]c(=O)n1C1CCCCC1	i	0.11
CN(c1ccccc1)S(=O)(=O)c1cc(Cl)ccc1Cl	i	0.59
CN1CCSc2ccc(C(=O)NCc3cccc(F)c3)cc21	i	-0.13
COc1ccccc1NC(=O)N(Cc1ccccc1)c1ccccn1	i	0.36
O=C(O)c1ccccc1C(=O)NNC(=O)C(c1ccccc1)c1ccccc1	i	0.3
CN=C1S/C(=C\c2cn(CC(=O)OC)c3ccccc23)C(=O)N1C	i	0.71
Cc1ccc(S(=O)(=O)CC(=O)Nc2sc(C)c(C)c2C(N)=O)cc1	i	1.1

# Additional results:
Molecule	KCNQ2 inh	KCNQ2 inh baseline
O=S(=O)(c1ccc2nc(N3CCN(c4ccccc4F)CC3)ccc2c1)N1CCCCC1	i	0.04
O=C(O)/C=C/c1nc(-c2ccccc2)n2ccccc12	i	0.61
COc1ccccc1NC(=O)CCC(=O)OC(C)C(=O)c1ccccc1 (stereo not given)	i	0.25
CC(=O)N1CCCN(Cc2cn(-c3ccc(C)cc3)nc2-c2ccc(F)cc2)CC1	i	0.11
